Screening data deposited in PubChem BioAssay by National Center for Advancing Translational Sciences (NCATS).
Anthrax LT inh = qHTS Assay for Anthrax Lethal Toxin Internalization; Cells, anthrax lethal toxin internalization, FRET ratio (460/530); Potency, µM (doses to about 40 µM), inactives show at the highest dose activity change, negative = inhibition, actives largely listed as inhibitors; actives 0.67% (n = 70,000); active = well fitted falling ratio curve with the 530 nm signal flat; inconclusive = other ratio curves, or a change in one channel alone; inactive = flat curves in the ratio and both channels; the % refers to the ratio; further: on the % scale 0 is the no-effect control and ±100 the full control effect; nearly all actives have a fitted effect of over 50% in size; tested in ME-180 cells; beta-lactamase reporter
Prx2 Sm inh = Schistosoma Mansoni Peroxiredoxins (Prx2); AID 448, 2006; Potency, µM; Schistosoma mansoni peroxiredoxin 2 (Prx2); S. mansoni Prx2 activity coupled to TGR/GSH (TGR is thioredoxin glutathione reductase), NADPH fluorescence loss, qHTS; some inactives read as strong as hits; actives 0.07% (n = 65,000); active means full or partial inhibition curve with a strong effect at the top dose; inconclusive means weaker partial or single-point curve; inactive means no accepted curve; further: series up to 57 µM; many of its hits are not listed in these tables
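Purified S. mansoni TGR and Prx2 in pH 7.4 phosphate buffer with EDTA and Tween-20 were preincubated with compounds for 15 min. Further NADPH/GSH was added, then a 2.5 mM H2O2 aliquot initiated turnover, followed kinetically by NADPH fluorescence.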
The depositor's hits bear a star; ? = inconclusive; nt = not tested or not shown; [ ] = remark or other dose. Potency means the concentration at half of the fitted maximal effect.

SMILES	Anthrax LT inh	Prx2 Sm inh
CC(C)CO/N=C1/C[C@@H](O)[C@@H](O)[C@@H]2[C@@H]3C(=O)N(C[C@@H]4CCCO4)C(=O)[C@H]3CC[C@@H]12	0.1%[8 µM]	nt
CCCOC(=O)CCn1c(=S)oc2ccccc21	-10.7%	>57
CCOC(=O)CNC(=O)c1ccc2c(c1)OCCO2	-16.3%	>57
CCCCCn1c(SCC#N)nc2cc(C(=O)NC3CCCCC3)ccc2c1=O	?	>57
COC(=O)C1(CCSC)NC(c2ccccc2OC)C2C(=O)N(C)C(=O)C21 (centres undefined)	0.9%	>57
COc1ccc(OC)c(-c2c[n+](=O)c3c(n2[O-])CCCC3)c1	?	>57
CCC(C)(C)n1nnnc1C(c1ccc(OC)c(OC)c1)N1CCN(c2ccc(F)cc2)CC1 (centres undefined)	-15.9%	>57
COCC(C)n1c(C)cc(C(=O)COc2ccc(S(=O)(=O)N3CCOCC3)cc2Cl)c1C (centres undefined)	5.9%	>57
COc1cccc(-n2nnc3c(=O)n(Cc4ccc(F)cc4)cnc32)c1	?	>57
CCCn1cnc2cc(NCc3cccc(OC)c3)ccc21	16.7%	>57
CNCC/C=C\c1cccnc1	-13.6%	>57
CCCOc1ccc(N2C(=O)CC(N(O)c3ccccc3)C2=O)cc1 (centres undefined)	?	>57
Cn1c(SCc2nc3ccccc3c(=O)[nH]2)nnc1-c1ccco1	5.7%	>57
COC(=O)c1ccc(S(=O)(=O)N(Cc2cc3cc4c(cc3[nH]c2=O)OCO4)C2CCCCC2)cc1	6.0%	>57
CC1(CC(=O)O)O[C@H]2CCCCC[C@H]2O1 (some centres undefined) (tested in a mixture with another compound)	-5.4%[8 µM]	>57
COCCCN1CC23C=CC(O2)C(C(=O)OC)C3C1=O (centres undefined)	-2.3%	>57
CCc1ccc2nc(NC(=O)c3cc(C)on3)sc2c1	-4.0%	>57
O=C(Nc1ccc(OCC(=O)N2CCN(S(=O)(=O)c3ccccc3)CC2)cc1)c1ccco1	-10.8%	>57
C=CCn1cnc2c(c1=O)c1nc3ccccc3nc1n2/N=C/c1ccccn1	11.4%	>57
CCCCCCCCOC(=O)c1ccccc1C(=O)OCCCCCCCC	?	nt
COc1cccc(-c2cc(N(C)Cc3ccco3)ncn2)c1	-11.7%	>57
c1cc(CNCCN2CCNCC2)ccn1	-7.2%[8 µM]	>57
CC(C(=O)Nc1ccccc1C(=O)N1CCCC1)n1nnc2ccccc21 (centres undefined)	?	>57
COC(=O)CCc1n[nH]c(=O)[nH]c1=O	18.0%	>57
O=C(NCCOCC(F)(F)C(F)F)c1cc(F)c(F)cc1Cl	?	>57

Record cards, as listed above. Order of screens: Anthrax LT inh	Prx2 Sm inh
`CC1(CC(=O)O)O[C@H]2CCCCC[C@H]2O1` (some centres undefined) (tested in a mixture with another compound) is listed with -5.4%[8 µM]	>57
`COc1cccc(-n2nnc3c(=O)n(Cc4ccc(F)cc4)cnc32)c1` is listed with ?	>57
`COC(=O)c1ccc(S(=O)(=O)N(Cc2cc3cc4c(cc3[nH]c2=O)OCO4)C2CCCCC2)cc1` is listed with 6.0%	>57

Returning to the listing, repeating the 4 entries before the break.
SMILES	Anthrax LT inh	Prx2 Sm inh
c1cc(CNCCN2CCNCC2)ccn1	-7.2%[8 µM]	>57
CC(C(=O)Nc1ccccc1C(=O)N1CCCC1)n1nnc2ccccc21 (centres undefined)	?	>57
COC(=O)CCc1n[nH]c(=O)[nH]c1=O	18.0%	>57
O=C(NCCOCC(F)(F)C(F)F)c1cc(F)c(F)cc1Cl	?	>57
c1ccc(Nc2ncncc2-c2ccoc2)cc1	-0.7%	>57
CC(=O)Nc1cc(NC(C)=O)c2nc(N)sc2c1	-11.9%	>57
Cc1cc(C)c(C(=O)COC(=O)Cn2cnnn2)cc1C	12.7%	>57
CCCn1c(SCC(=O)Nc2cc(C)on2)nc2c1c(=O)n(C)c(=O)n2C	-0.6%	>57
COc1ccccc1-n1c(=S)sc2c(=O)n(Cc3ccco3)c(SC)nc21	nt	>57
COc1ccc(C(O)P(=O)(O)CCc2ccccc2)cc1 (centres undefined)	-4.1%	>57
C=CCOC(=O)C1=C(C)NC(SCC(=O)OCC)=C(C#N)C1c1ccc(O)c(OC)c1 (centres undefined)	-4.6%	>57
O=C(Nc1cccc2nsnc12)c1ccc2c(c1)OCCO2	?	>57
COC(=O)c1cc(OC)c(OC)cc1NC(=O)Nc1ccc(OC)cc1OC	2.0%	nt
CCCn1c(CN2CCN(C(=O)c3ccco3)CC2)nc2c1c(=O)n(C)c(=O)n2C	14.1%	>57
O=C(NC1CC2CCC1C2)C1COc2ccccc2O1 (centres undefined)	1.6%	>57
O=C(NC1CCN(C(=O)Nc2ccccc2)CC1)C1CCCCC1	-6.4%	>57
CC(C=O)Cc1ccc(C(C)(C)C)cc1 (centres undefined)	-3.5%	nt
CCCCC(CC)CNCC(CC)CCCC (centres undefined)	1.6%	nt
COC(=O)COc1ccc(Oc2cc(C)nc(SC)n2)nn1	-2.3%	>57
CCN(CC)CC(=O)Nc1c(Br)ccc2c1OCO2	?	>57
O=C1C2C(C(=O)N1Cc1cccnc1)C1C=CC2C12CC2 (centres undefined)	?	>57
CCOC(=O)/C=C1\SCC(=O)N1CC(O)CN1C(=O)CS/C1=C\C(=O)OCC	-12.6%	>57
O=C(Nc1c(-c2ccccc2)nc2c(Br)cc(Br)cn12)c1ccco1	-17.6%	>57
Cc1cccc(NC(=O)Cn2cnc3sc(C)c(S(=O)(=O)N4CCC(C)CC4)c3c2=O)n1	3.9%	>57
O=C(COc1ccc(F)cc1)N(CC1=CCS(=O)(=O)C1)c1ccccc1	0.6%	>57
CC(C)OC(=O)CSc1nnc(-c2ccccn2)n1-c1ccccc1	-22.2%	>57
O=C(CN1CCN(c2ccccn2)CC1)Nc1cccc(C(F)(F)F)c1	-9.7%	>57
CCOC(=O)C1CCCN(C(=O)c2ccc(CS(=O)(=O)c3ccc(C)cc3)o2)C1 (centres undefined)	-7.8%	>57
CCSC(=O)Cl	-0.1%	nt
SMILES	Anthrax LT inh	Prx2 Sm inh
COc1ccc(CNc2ncncc2-c2ccccc2C)c(OC)c1	-1.1%	>57
Cc1cccc(C)c1OCC(O)CN (centres undefined)	-8.7%	>57
Cc1c(NC(=O)CSc2nnnn2Cc2ccccc2)c(=O)n(-c2ccccc2)n1C	-8.1%	>57
Cc1ccn2c(CCc3nnc4cc(C)ccn34)nnc2c1	-2.1%[8 µM]	>57
O=S1(=O)Nc2c(ccc3cccnc23)-c2ccccc21	-16.4%	>57
CCCC(=O)Nc1c2c(nn1-c1ccc(OC)cc1)CS(=O)(=O)C2	5.2%	nt
CC(=O)N1CCc2cc(Br)cc(S(=O)(=O)NCCCN3CCC(C)CC3)c21	8.3%	>57
CCOC(=O)c1cc2sc(C)cc2n1CC(=O)NCc1ccc(F)cc1	-15.0%	>57
O=C(O)Cn1nnnc1SCC(=O)Nc1ccc(OC(F)(F)F)cc1	3.3%	>57
c1nc(N2CCNCC2)c2sc3nc(N4CCOCC4)c4c(c3c2n1)CCC4	-22.6%	>57
Cc1[nH]c(N)nc(=S)c1CCCNc1ccccc1	-22.3%[8 µM]	>57
CC(SC1CCCC1)C(=O)NC(C)(C#N)C(C)C (centres undefined)	-2.6%	>57
COC(=O)[C@@H](N)CCCN=C(N)N[N+](=O)[O-]	?	>57
CN(C)CP(=O)(Nc1ccccc1)N(C)C (centres undefined)	?	>57
O=C(CCNS(=O)(=O)c1cccc2nsnc12)NCCc1ccccc1	0.0%	>57
c1ccc(Nc2c3c(nc4ncnn24)CCC3)cc1	-18.8%	>57
CCO[C@H]1O[C@@H]([C@H](COCc2ccccc2)OCc2ccccc2)[C@@H](OCc2ccccc2)[C@H]1O	-27.2%[3.58 µM]	>57
CC(=O)Nc1cccc(-c2cnc3ccccc3n2)c1	19.0%	>57
CCOC(=O)Cn1c(=O)oc2cc(S(=O)(=O)NC3CCCc4ccccc43)ccc21 (centres undefined)	?	>57
COc1ccc(CNc2nc3c(c(=O)[nH]c(=O)n3C)n2CCCc2ccccc2)cc1	-9.6%	>57
CC(=O)Nc1ccc(C(=O)CSc2nnc(-c3ccc(O)cc3)n2CC2CCCO2)cc1 (centres undefined)	3.1%	>57
Cc1cccc(S(=O)(=O)c2c(N)n(/N=C/c3ccco3)c3nc4ccccc4nc23)c1	?	>57
COc1cccc(CNC(=O)Cn2c(=O)oc3ccccc32)c1OC	-9.0%	>57
N#Cc1nc(COc2cccc(Cl)c2)oc1N1CCCC1	?	>57
CN(Cc1ccccc1)c1nc2c(c(=O)[nH]c(=O)n2C)n1CCSc1nc2ccccc2[nH]1	-22.0%	>57

An excerpt of these results, in markdown:
| SMILES | Anthrax LT inh | Prx2 Sm inh |
| --- | --- | --- |
| O=C(CCNS(=O)(=O)c1cccc2nsnc12)NCCc1ccccc1 | 0.0% | >57 |
| c1ccc(Nc2c3c(nc4ncnn24)CCC3)cc1 | -18.8% | >57 |

Remaining list, next part
SMILES	Anthrax LT inh	Prx2 Sm inh
Cc1ccc(CNC(=O)[C@H]2C[C@@H]2[C@H](NP(=O)(c2ccccc2)c2ccccc2)c2ccccc2)c(F)c1F	-4.9%	>57
CCOC(=O)C1C2C=CC3(CN(c4ccccc4CC)C(=O)C13)O2 (centres undefined)	11.9%	>57
CCOC(=O)CSC1=Nc2ccccc2C2=NC(CC(=O)NCc3ccc4c(c3)OCO4)C(=O)N12 (centres undefined)	2.5%	>57
Cc1ccc(CNC(=O)CSc2nc(N3CCCCC3)nc(N3CCCCC3)n2)cc1	nt	>57
CCOC(=O)N/N=C1/C[C@@H](O)[C@@H](O)[C@@H]2[C@H]3C(=O)N(c4ccc(F)cc4F)C(=O)[C@@H]3CC[C@H]12	-6.1%[1.6 µM]	nt
COC(=O)C(O)(c1ccc2c(c1)CCCN2)C(F)(F)F (centres undefined)	5.5%	>57
O=C(CCCn1c(=O)[nH]c2ccsc2c1=O)N1CCCCC1	-5.7%	>57
CC(=O)NCCNc1ncnc2ccc(-c3ccc4c(c3)OCO4)cc12	3.0%	>57
Cc1cc(C)n2nc(-c3cccnc3)nc2n1	10.8%	>57
COc1ccc(-n2c(=O)cc(N3CCN(c4ccccc4OC)CC3)[nH]c2=O)cc1	0.3%	>57
Cn1nc(-c2ccc(C(=O)NCC3CCCO3)cc2)c2ccccc2c1=O (centres undefined)	1.9%	>57
O=c1n(CC2CO2)c(=O)n(CC2CO2)c(=O)n1CC1CO1 (centres undefined)	1.9%	nt
CC(C)(C)Cc1nnc(NS(=O)(=O)c2ccc(F)cc2)s1	-7.3%	>57
C=CCN1C(=O)/C(=C2\SC(N3CCOCC3)=NC2=O)c2cc(Br)ccc21	-5.8%	>57
Cc1cc(=O)oc2cc(Oc3ncccn3)ccc12	10.1%	>57
CC(OC(=O)c1nsc(Cl)c1Cl)C(=O)NCc1ccco1 (centres undefined)	-1.3%	>57
O=C(CCc1ccccc1)N1CCN(CCO)CC1	-8.1%	>57
Cc1cccc(NC(=O)CN2CCN(CC(=O)Nc3cccc(C)c3)CC2)c1	-14.5%	nt
O=C(CSc1nc(-c2ccccc2)cc(=O)[nH]1)N1CCc2ccccc21	2.9%	>57
O=S(=O)(c1ccc2c(c1)OCCO2)N1CCC(O)(c2ccc(Cl)cc2)CC1	-5.6%	>57
CCC(c1nnc(SCCNCCO)n1CCN1CCOCC1)N(C)C (centres undefined)	0.7%	>57
S=C(CSc1ccccc1)Nc1cccc2ccccc12	-11.4%[8 µM]	>57
CCCCOc1ccccc1NC(=O)CC1Nc2ccccc2NC1=O (centres undefined)	?	>57
Cc1nn(Cc2ccccc2Cl)c(C)c1C(=O)NCc1ccco1	0.0%	>57
Cc1cc(NC(=O)Cn2nc(C(F)(F)F)c3c2CCC3)n(-c2ccccc2)n1	-19.5%	>57
SMILES	Anthrax LT inh	Prx2 Sm inh
CCc1nnc(NCn2nc(C)cc2C)s1	15.6%	>57
O=C(CN1C(=O)COc2ccc(Cl)cc21)Nc1ccc2c(c1)OCCO2	-4.4%	>57
Cc1oc(C)c(C(N)=O)c1C(N)=O	-5.9%	>57
Cc1ccn2cc(CCNC(=O)c3ccc(Br)o3)nc2c1	7.7%	>57
FC(F)(F)c1ccccc1-c1cncnc1NCc1cccnc1	-4.0%	>57
CCCCC(=O)Nc1ccc2c(c1)OCCO2	1.6%	>57
C(=C\c1ccccc1)/CN1CCN(Cc2ccc3c(c2)OCCO3)CC1	?	nt
CCCNS(=O)(=O)c1ccc(OCC(=O)N2CCN(Cc3ccc4c(c3)OCO4)CC2)cc1	-0.9%	nt
CC(=O)N1CCN(CC(=O)Nc2c(Cl)cccc2Cl)CC1	15.3%	>57
Cc1cc(=O)oc(C)c1C(=O)NCCCN1CCN(c2ccc(F)cc2)CC1	-20.8%	>57
CCNc1ncc2nc(-c3cn(C)c4ccccc34)c(=O)n(-c3ccccc3)c2n1	?	>57
CCOC(=O)N1CCN(C(=O)Cn2ncn3nc(-c4cccs4)cc3c2=O)CC1	2.3%	>57
COCCn1nnnc1CN(CCc1ccc(OC)c(OC)c1)Cc1cc2ccc(C)cc2[nH]c1=O	?	>57
CS(=O)(=O)N(CC(N)=O)c1ccc(F)c(Cl)c1	-2.5%	>57
Nc1cc(Cl)c(NC2=NCCN2)c(Cl)c1	-3.7%	>57
CCCCC1(COC(=O)CCC(=O)O)C(=O)N(c2ccccc2)N(c2ccccc2)C1=O	0.2%[3.58 µM]	>57
CC(C)(C)CC(C)(C)c1ccc(OCCO)cc1	-2.8%	nt

Only part of the results is shown; the hit share may differ from the screen's.
